YjeE inh: displaces an ADP probe from E. coli YjeE (TsaE); AID 605; 71,000 compounds, 0.05% hits; P0AF67; Potency, µM; purified YjeE, fluorescence polarisation of a bound ADP probe; active = well fitted falling curve; inconclusive = weaker or top-dose-only fall, or a rising curve; inactive = flat or poorly fitted curve;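 also: top concentration of the series not given in the record; excess ADP was the control for the full effect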
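Purified YjeE (10 uM) with BODIPY Texas Red-labeled ADP probe (2 uM); compounds pin-transferred, 15 min at room temperature. Binding inhibition read as decreased fluorescence polarization; ADP titration as control.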
Bst PK mod: pyruvate kinase (B. stearothermophilus) modulation. 51,000 compounds, 1.2% hits. partly purified Bacillus stearothermophilus pyruvate kinase, luminescence ATP production; ribose 5-phosphate activator present at AC10. Potency, µM; in the data active means potency below about 11 µM; inconclusive means mostly about 12 µM to 25 µM; inactive means weaker than that;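 the screen sought inhibitors and activators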;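 also: potency is read from the fitted curve at half-maximal effect; scaled between full activation by ribose 5 phosphate and full inhibition by luteolin; about four in five hits inhibit and the cells do not say which; series up to 57 µM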
Active calls of the source: *; i = inactive; · = not tested or not shown. A portion of the library. The share of hits here may be higher or lower than overall.

SMILES	YjeE inh	Bst PK mod
NC(=O)C1(N2CCCCC2)CCN(C2CC(=O)N(Cc3cccs3)C2=O)CC1 (centres undefined)	i	>57
CC(C)(C)C(=O)CCN1C(=O)C2(OCCO2)c2ccccc21	i	>57
CC(C)NC[C@H](O)c1ccc2ccccc2c1	i	·
N#Cc1ccccc1NC(=O)CSc1nccn1CCc1ccccc1	i	>57
O=C(CCCNS(=O)(=O)c1cccc2nsnc12)NCc1ccc(Cl)cc1	i	>11.4
O=C1NC2=C(C(=O)c3ccccc32)C(c2ccccc2)N1 (centres undefined)	i	>57
COCCN1Cc2cccc(C(=O)Nc3cc(C)cc(C)c3)c2C1=O	i	>57
CCc1cc(C(=O)OC)c(NC(=O)CCC(=O)O)s1	i	>57
CC(NC(=O)c1ccco1)c1ccc2c(c1)OCCO2 (centres undefined)	i	>57
CC(=O)c1cc(OC(=O)c2ccncc2)ccc1OC(=O)c1ccncc1	i	>57
O=C(NCCCNC(=O)C(F)(F)C(F)F)C(F)(F)C(F)F	i	>57
O=c1[nH]cnc2scc(-c3ccc(F)cc3)c12	i	·

Shown field by field: part of the list above.
> CC(C)NC[C@H](O)c1ccc2ccccc2c1
  YjeE inh = i
  Bst PK mod = ·

> O=C(CCCNS(=O)(=O)c1cccc2nsnc12)NCc1ccc(Cl)cc1
  YjeE inh = i
  Bst PK mod = >11.4

One compound at a time, from the list above. Values in the order: YjeE inh, Bst PK mod
CC(C)NC[C@H](O)c1ccc2ccccc2c1 is listed as i, ·
O=C(CCCNS(=O)(=O)c1cccc2nsnc12)NCc1ccc(Cl)cc1 is listed as i, >11.4
NC(=O)C1(N2CCCCC2)CCN(C2CC(=O)N(Cc3cccs3)C2=O)CC1 (centres undefined) is listed as i, >57

New compounds follow.
SMILES	YjeE inh	Bst PK mod
COC(=O)c1c(N2C(=O)CCC2=O)sc2c1CCCC2	i	·
CCOC(=O)c1cnn(-c2ccccc2)c1NC(=O)c1cccs1	i	·
C[C@H](NC(=O)NCc1cccs1)C(=O)O	i	>57
CN1CCC2(CC1)C1CN(C)CC=C1C(C#N)=C(N)C2(C#N)C#N (centres undefined)	·	>25.6
COC(=O)N1CCC2(CC1)CN(C(=O)Nc1cccc(C#N)c1)C2	i	·
N#CCc1c(C#N)c(N)nc(N2CCN(S(=O)(=O)c3ccccc3)CC2)c1C#N	i	·
CCOC(=O)CNC(=O)c1sc2nc(C)cc(C)c2c1N	i	>11.4
Cc1cc(C)cc([N+](=O)[O-])c1	i	·
O=C(CCn1c(=O)c2ccccc2n(Cc2cc(=O)n3ccccc3n2)c1=O)NCc1ccco1	i	>57
CCc1c(C)nc2cc(-c3ccc(OC)c(OC)c3)nn2c1N1CCCC1	i	i
COCCn1c(=O)c(C)nc2cnc(Oc3cccc(Cl)c3)nc21	i	·
O=C(NCc1ccc2c(c1)OCO2)c1c(O)c2cccc3c2n(c1=O)CCC3	i	>57
CC(=O)Nc1ccc(S(=O)(=O)n2cnc3cc(C)c(C)cc32)cc1	i	·
CC(=O)Nc1ccc(S(=O)(=O)N2CCN(c3cc(C)ccc3C)CC2)cc1	i	·
Cc1nn(-c2ccccc2)c(C)c1NC(=O)Cc1cccs1	i	·
CC(=O)N1CC2(C)CN(C(C)=O)CC(C)(C1)C2	i	>57
O=C(Nc1ccc(N2CCOCC2)c(Cl)c1)c1ccco1	i	i
N#Cc1nc(COc2ccc(-c3ccccc3)cc2)oc1NCCCN1CCOCC1	i	·
c1ccc(-c2csc(-n3cnnn3)n2)cc1	i	·
Cc1nnsc1C(=O)Nc1ccccc1Cl	i	>57
CCOc1ccccc1Nc1ccc(C(=O)O)cc1NC(C)=O	i	>57
C1CCC(Nc2nnnn2C2CCCCC2)CC1	i	·
COc1ccc(N(CC(=O)NCc2ccco2)S(C)(=O)=O)cc1Cl	i	·
CC(C)CCNc1nc2c(cc1C#N)COC(C)(C)C2	·	>25.6
CCCCCCS(=O)[C@H]1CS(=O)(=O)C[C@@H]1S(=O)CCCCCC (some centres undefined)	i	>57
CC(C)(C)NC(=O)Cn1nnnc1-c1nonc1N	i	>57
Cc1scc(C(=O)N2CCN(S(C)(=O)=O)CC2)c1-c1ccccc1	i	>57
O=C(CCNC(=O)c1ccc(Br)o1)NC1CCCC1	i	>57
COc1ccc(CNc2ncncc2-c2ccc(C(=O)N(C)C)cc2)c(OC)c1	i	·
CCCn1cc(SCC(N)=O)c2ccccc21	i	·
COc1cc2ncnc(Nc3cccc(Br)c3)c2cc1OC	i	·
Cc1ccc(-c2nc(CS(=O)CC(=O)NCc3ccccc3)c(C)o2)cc1 (centres undefined)	i	·
COc1c(O)ccc2cnn(-c3ccccc3C)c(=O)c12	·	>25.6
O=C(c1ccccc1)N1CCN(S(=O)(=O)N2CCCCC2)CC1	i	>57
CCC(Sc1ccc2nnc(-c3cccnc3)n2n1)C(=O)O (centres undefined)	i	·
CCCCC(=O)Nc1cccc(-c2nnc(-c3ccccc3)o2)c1	i	·
CC(C)CCNC(=O)COc1ccc2c3c(c(=O)oc2c1)CCC3	i	>57
O=C(CSc1nnc(-c2ccncc2)n1C1CCCCC1)Nc1cccc(O)c1	i	>57
O=C(c1cc(S(=O)(=O)N2CCOCC2)ccc1F)N1CCCc2ccccc21	i	>57
CN(C)c1ccccc1C(=O)c1ccccc1N(C)C	i	·
CCOC(=O)CSc1nnc2c(n1)C1(C)CCC2C1(C)C (centres undefined)	i	>57
Cc1ccccc1-c1nc(CN2CCC(C(=O)N3CCC(C(N)=O)CC3)CC2)c(C)o1	i	·
Cc1cc2c(=O)[nH]c(N)nc2nc1C	i	·
COCC(=O)N1CCC[C@@]2(CCN(C(c3ccccc3)c3ccccc3)C2)C1	i	·
O=C(c1ccc(COc2ccc3c(c2)CCC3)o1)N1CCN(c2ccccc2)CC1	i	>57
Clc1ccc(C2CC(c3ccccc3)Nc3ncnn32)cc1 (centres undefined)	i	·
CC(=O)Oc1ccc(C(=O)O)cc1OC(C)=O	i	>57
CCCCCCCCCCCCCCCC(=O)NCCO	i	·
CC(=O)c1cccc(NC(=O)c2ccncc2)c1	i	·
CCOC(=O)c1cc(C)[nH]c(=S)c1C#N	i	>57
c1ccc2c(c1)Cc1cc3ccccc3nc1-2	i	·
CC1CN(C(=O)N[C@@H](Cc2ccccc2)C(=O)O)CC(C)O1 (some centres undefined)	i	>57
CN(C)c1ccc(CNC(=O)[C@@]2(C)C=C[C@@H](Cc3ccccc3)N2C)cc1	i	·
CCN(CC)CCCNC(=O)c1cc2c(-c3ccc(Cl)cc3)nn(C)c2s1	i	·
OC(COc1ccc(OCc2ccccc2)cc1)CN1CCCCC1 (centres undefined)	i	>57
O/N=C/c1cccn1-c1ccc(O)cc1	i	·
CCOC(=O)CSc1nnc(-c2ccc(S(=O)(=O)N3CCOCC3)cc2)n1-c1ccccc1	i	>57
COC(=O)c1nnn(-c2nonc2N)c1CSCCO	i	>57
CN(C)c1ccc(NC(=O)CN2C(=O)CC(c3ccccc3)=Nc3ccccc32)cc1	i	>57
CN(CP(=O)(O)CN(C)S(C)(=O)=O)S(C)(=O)=O	i	>57
Further entries follow:
SMILES	YjeE inh	Bst PK mod
O=C(CCC1CCCCC1)Nc1ccccc1O	i	>57
COc1ccc(-c2cc(-c3ccc(OC)cc3)[nH]n2)cc1	i	2.14*
C(=N\c1nc2ccccc2n1CCN1CCCCC1)/c1ccc2c(c1)OCO2	i	>57
O=C(NC1CCCC1)c1nc2c(nnn2Cc2cccc(Cl)c2)c(=O)[nH]1	i	i
CN(C)CCN1C(=O)c2oc3ccc(Cl)cc3c(=O)c2C1c1cccc(Br)c1 (centres undefined)	i	>57
COc1ccc(Cl)cc1NC(=O)CN(C)C(C)C(=O)NCC1CCCCC1 (centres undefined)	i	>57
COc1ccc(NC(=O)N2CC[C@@]3(CCCN(C(=O)c4c(C)noc4C)C3)C2)cc1	i	·
CCc1oc2ccccc2c1C(=O)c1cc(Br)c(O)c(Br)c1	i	>25.6
COc1ccc(-c2cc(C(=O)O)[nH]n2)cc1OC	i	>57
COC(=O)c1[nH]c2ccc(C)cc2c1NC(=O)CCN1CCN(Cc2ccc3c(c2)OCO3)CC1	i	>57
COc1cccc(OCC(O)CN2CCC(C)CC2)c1 (centres undefined)	i	>57
CCOCCCNC(=O)Cn1ncc2c(=O)oc3ccccc3c21	i	·

Retrieved one by one from above (three):
SMILES	YjeE inh	Bst PK mod
CN(C)CCN1C(=O)c2oc3ccc(Cl)cc3c(=O)c2C1c1cccc(Br)c1 (centres undefined)	i	>57
COc1ccc(-c2cc(C(=O)O)[nH]n2)cc1OC	i	>57
CCOCCCNC(=O)Cn1ncc2c(=O)oc3ccccc3c21	i	·

Remaining list, next part
SMILES	YjeE inh	Bst PK mod
O=C(NCc1cccs1)NC1CCCCC1	i	>57
C=CCNC(=O)c1c(N)n(-c2cccc(S(N)(=O)=O)c2)c2nc3ccccc3nc12	i	·
Cc1cc(C)n2nc(C(=O)OCCOc3cccc(Br)c3)nc2n1	i	>57
COc1ccc(OC)c(NC(=O)CSc2nnc(Cc3cccn3C)n2-c2ccc(F)cc2)c1	i	·
COc1ccc(-c2oc3ncnc(NCCCN4CCOCC4)c3c2-c2ccc(OC)cc2)cc1	i	>57
COC(=O)c1cc2c(cc1Cl)SC(=NCCCN1CCOCC1)NS2(=O)=O	i	>57
CCOC(=O)c1sc(NS(=O)(=O)c2ccc(NC(C)=O)cc2)nc1C	i	>57
O=C(c1ncc[nH]1)c1ccccc1C(=O)N1CCOCC1	i	>57
Cc1ccccc1S(=O)(=O)Cc1ccc(C(=O)N2CCN(c3ccc(F)cc3)CC2)o1	i	>57
O=C(Cc1cccs1)Nc1ccc(Cl)cc1	i	>57
CC(C)CN(Cc1cc2ccccc2[nH]c1=O)C(=O)c1cccnc1	i	>57
CSc1nsc(SC)c1C(=O)OCC(F)(F)F	i	>57
C[C@H](O)[C@H](O)[C@@H]1CNc2nc(N)[nH]c(=O)c2N1	i	·
COCCn1nnnc1SCC(=O)N1CCCCC1	i	>57
C=C(C)c1ccc(C(C)(C)NC(=O)NCc2ccco2)cc1	i	>57
C=CCNC(NC(=O)c1ccccc1)(C(=O)OCC)C(F)(F)F (centres undefined)	i	>57
CCc1nn2c(=O)cc(CSc3nc4sc5c(c4c(=O)n3C)CCCC5)nc2s1	i	>57
COc1ccc(C(O)c2nc3ccccc3s2)cc1 (centres undefined)	i	i
COc1ccc(C(=O)Nc2ccc(S(=O)(=O)Nc3onc(C)c3C)cc2)cc1OC	i	>57
COc1cccc(C2=NOC(C(=O)Nc3cccc(C(C)=O)c3)C2)c1OC (centres undefined)	i	·
O=C(NCCCN1CCCCCC1)C1CC(=O)N(CCc2ccccc2)C1 (centres undefined)	i	>57
Clc1ccc(-c2nn3c(C4COc5ccccc5O4)nnc3s2)cc1 (centres undefined)	i	>57
COc1ccc2c(c1OC)C(=O)OC2CC(=O)c1ccc(N(C)C)cc1 (centres undefined)	i	·
Cc1nnc(SCC(=O)Nc2ccc(Br)cn2)[nH]c1=O	i	>57
COc1nc(OC)nc(N(C)CCO)n1	i	·
COc1ccc(C(=O)Cn2c(=O)c(CCC(=O)O)nn3c4ccccc4nc23)cc1OC	i	i
Cc1ccc(C)c(N2CCN(S(=O)(=O)c3ccc4c(c3)oc(=O)n4C)CC2)c1	i	>57
c1ccc(N2CCN(Cc3nnnn3C3CCCCC3)CC2)cc1	i	>57
Cc1nc2nc(SCC(=O)C(C)(C)C)[nH]c2cc1Br	i	>57
COc1ccc(S(=O)(=O)Nc2cc(C(=O)NC3CCCCCC3)ccc2N2CCOCC2)cc1	i	>57
CCN1CCn2c1nc(N1CCCCC1)nc2=O	i	>57
CC1(N)CCC(C(C)(C)N)CC1 (centres undefined)	i	·
CCOC(=O)c1nnn(CC(=O)Nc2cccc(F)c2)c1C(=O)OCC	i	>57
COc1ccc(C(=O)N2CCC3(CC2)CN(c2ncccn2)C3)cc1	i	·
N#CCSc1nc2c(sc(=S)n2Cc2ccco2)c(=O)n1-c1ccc(F)cc1	i	>57
OC1(c2cn(Cc3ccccc3)nn2)CCCCC1	i	>57
COC(=O)Cn1c(C(=O)N2CCCC2)cc2c1C[C@H]1CN(C(=O)c3ccccc3)[C@@](Cc3ccccc3)(C(=O)OC)[C@@H]21	i	·
O=C(Nc1cnn(Cc2ccc(Cl)cc2Cl)c1)c1noc2c1CCCC2	i	·
CSc1ccccc1C(=O)Nc1cccc(N(C)S(C)(=O)=O)c1	i	>57
COC(=O)[C@@H]1[C@@H]2C[C@H]3c4[nH]c5ccccc5c4CCN3C[C@@H]2CC[C@@H]1O	i	·
CCOc1ccc(Br)cc1CC(=O)O	·	>25.6
COc1ccccc1CN1CCN(C(CC(C)C)c2nnnn2Cc2cccs2)CC1 (centres undefined)	i	>57
Cc1ccc(-c2c3c(=O)n(C)c(=O)n(C)c3c3c(C)cc(C)nn23)cc1	i	>57
Cc1c(NC(=O)c2c(F)c(F)c(F)c(F)c2F)c(=O)n(-c2ccccc2)n1C	i	>57
CC(NC(=O)c1ccc(=O)oc1)c1ccccc1 (centres undefined)	·	>25.6
COc1ncc2nc(-c3cccs3)c(=O)n(C)c2n1	i	·
O=C(C1CCN(S(=O)(=O)c2ccc3c(c2)OCCO3)CC1)N1CCc2ccccc21	i	>57
O=C(CSc1nnc(CNC(=O)c2ccccc2F)o1)NCC1CCCO1 (centres undefined)	i	>57
OCCOc1ccc(C2=NCCO2)cc1	i	>57
